Screening data as filed in PubChem BioAssay.
Anthrax LT inh: qHTS Assay for Anthrax Lethal Toxin Internalization; Cells, anthrax lethal toxin internalization, FRET ratio (460/530); Potency, µM (titrated, usually from 40 µM), for the others: at the top dose activity change, negative = inhibition, hits mostly inhibitors; 70,000 tested, 0.67% active; AID 912, 2007; active = well fitted falling ratio curve with the 530 nm signal flat; inconclusive = other ratio curves, or a change in one channel alone; inactive = flat curves in the ratio and both channels; the % refers to the ratio; note: % is set by controls: 0 for no effect and ±100 for the full control effect; nearly all actives have a fitted effect of over 50% in size; tested in ME-180 cells; beta-lactamase reporter
Prx2 Sm inh: Schistosoma Mansoni Peroxiredoxins (Prx2) | AID 448, 2006 | S. mansoni Prx2 activity coupled to TGR/GSH (TGR is thioredoxin glutathione reductase), NADPH fluorescence loss, qHTS; some inactives read as strong as hits | 65,000 tested, 0.07% active | Potency, µM; active means full or partial inhibition curve with a strong effect at the top dose; inconclusive means weaker partial or single-point curve; inactive means no accepted curve; note: series up to 57 µM; many of its hits are not listed in these tables
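Purified S. mansoni TGR and Prx2 in pH 7.4 phosphate buffer with EDTA and Tween-20 were preincubated with compounds for 15 min. Further NADPH/GSH was added, then a 2.5 mM H2O2 aliquot initiated turnover, followed kinetically by NADPH fluorescence.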
* marks the source's active call; other numbers are inactive results; ? = inconclusive; . = no result given; & = joins results of further samples; [ ] = another dose, or the depositor's remark. Potency is the fitted concentration of half-maximal effect. Some of the compounds tested; the hit share may differ from the screen's.

SMILES	Anthrax LT inh	Prx2 Sm inh
COc1ccc(S(=O)(=O)N2CCC(C(=O)NCCc3ccc4c(c3)OCO4)CC2)cc1	3%	>57
Fc1ccc2nc3n(c2c1F)CCCCCC3	2%	>57
CCOP1(=O)C=C(C(C)(C)C)OC1c1ccc(F)cc1 (configuration not stated)	7%	>57
NC(=O)C1(N2CCCCC2)CCN(Cc2ccccc2Cl)CC1	5%	>57
CN(C)CCNC(=O)Cn1nc(-c2ccc(Cl)cc2)ccc1=O	.	>57
Cc1cccc2cc(CN(CCCN3CCOCC3)Cc3nnnn3C(C)(C)C)c(=O)[nH]c12	3%	>57
O=C(N1CCC(O)(c2cccnc2)CC1)C12CC3CC(CC(C3)C1)C2	-23%	>57
CN1CCN(c2ccc(NC(=O)COc3ccccc3Cl)cc2)CC1	-8%	>57
Cc1oc(-c2ccccc2F)nc1CSCC(=O)NCc1ccc2c(c1)OCO2	3%	>57
O=C(N1CCOCC1)N1CCN(S(=O)(=O)N2CCCCC2)CC1	-9%	>57
Cc1ccc(S(=O)(=O)N2CCCC2C(=O)N2CCCCCC2)cc1 (configuration not stated)	9%	>57
CSC(=NCCCN1CCOCC1)NS(=O)(=O)c1cccs1	13%	>57

Molecules above that contain a Cl atom:
SMILES	Anthrax LT inh	Prx2 Sm inh
NC(=O)C1(N2CCCCC2)CCN(Cc2ccccc2Cl)CC1	5%	>57
CN(C)CCNC(=O)Cn1nc(-c2ccc(Cl)cc2)ccc1=O	.	>57
CN1CCN(c2ccc(NC(=O)COc3ccccc3Cl)cc2)CC1	-8%	>57

Laid out differently: 6 of the compounds above
Structure,Anthrax LT inh,Prx2 Sm inh
NC(=O)C1(N2CCCCC2)CCN(Cc2ccccc2Cl)CC1,5%,>57
Cc1ccc(S(=O)(=O)N2CCCC2C(=O)N2CCCCCC2)cc1 (configuration not stated),9%,>57
COc1ccc(S(=O)(=O)N2CCC(C(=O)NCCc3ccc4c(c3)OCO4)CC2)cc1,3%,>57
Cc1oc(-c2ccccc2F)nc1CSCC(=O)NCc1ccc2c(c1)OCO2,3%,>57
CSC(=NCCCN1CCOCC1)NS(=O)(=O)c1cccs1,13%,>57
O=C(N1CCOCC1)N1CCN(S(=O)(=O)N2CCCCC2)CC1,-9%,>57

Further records follow.
SMILES	Anthrax LT inh	Prx2 Sm inh
O=C(O)CCn1c(=O)c2ccccc2c2ccccc2c1=O	-3%	>57
CC(C)CC1NC(=O)N(CC(=O)N2CCN(S(=O)(=O)c3ccc(Cl)cc3)CC2)C1=O (configuration not stated)	1%	>57
CC[C@H](Oc1ccc(Cl)cc1)C(=O)OC1C[C@H]2CC[C@@H](C1)N2C (some centres not stated)	?	>57
C=C(C)COc1ccc2oc(C)c(C(=O)OCCOC)c2c1	?	>57
COc1ccc(OC)c(S(=O)(=O)NCCO)c1	10%	>57
CC12CC3CC(C)(C1)CC(C(=O)Nc1nn[nH]n1)(C3)C2	.	>57
COC(=O)c1sccc1NC(=O)CSc1nnnn1-c1ccccc1F	-20%	.
O=C(Nc1cccc2cccnc12)c1cccnc1	?	>57
COc1ccc(Cc2nc(-c3cccs3)no2)cc1OC	-15%	>57
CC[N+](CC)(CC)C/C(N)=N/O	-3%	>57
CC(=O)OCC1OC(n2ccc(=O)[nH]c2=O)C(O)C1O (configuration not stated)	-1%	>57
COc1ccc(NC(=O)c2ocnc2C)cc1OC	9%	>57
CCCCOc1ccc(Cl)cc1CSc1nnc(C)n1N	-3%	>57
CSc1nc(C)cc(OCC(=O)n2nc(C)cc2C)n1	-5%	>57
COc1ccc(-c2nc3cnc(N4CCN(C)CC4)nc3n(-c3ccc(OC)cc3)c2=O)cc1	?	>57
Cc1ccc(-c2nc(CS(=O)CC(=O)NC3CCC(C)CC3)c(C)o2)cc1 (configuration not stated)	-20%	>57
COc1ccc(CC2C(=O)NC(=O)NC2=O)c(OC)c1	-4%	.
CCc1ccc(NC(=O)CSc2nnc(CNC(=O)c3c(F)cccc3Cl)o2)cc1	1%	>57
CCOC(=O)[C@]1(C(NC(=O)OC)c2cccc(C)c2)CCCC1=O (some centres not stated)	8%[8 µM]	.
Cc1cc(NC(=O)CSc2nc3ccccc3n2CC(=O)N2CC(C)CC(C)C2)no1 (configuration not stated)	0%	>57
Fc1cccc(Cl)c1Cn1nnc2c(-n3ccnc3)ncnc21	-7%	>57
Cn1c(=O)cc(SCC(=O)N2CCN(c3ccccn3)CC2)c2ccccc21	?	>57
Cn1cc(S(=O)(=O)NCc2ccco2)c(=O)n(C)c1=O	4%	>57
CCOC(=O)C1(CC)NC(c2ccc(N(C)C)cc2)C2C(=O)N(C)C(=O)C21 (configuration not stated)	-21%	>57

3 entries from above, sorted by number of heavy atoms, lowest first.
SMILES	Anthrax LT inh	Prx2 Sm inh
Cn1cc(S(=O)(=O)NCc2ccco2)c(=O)n(C)c1=O	4%	>57
Fc1cccc(Cl)c1Cn1nnc2c(-n3ccnc3)ncnc21	-7%	>57
Cn1c(=O)cc(SCC(=O)N2CCN(c3ccccn3)CC2)c2ccccc21	?	>57

Looked up above.
Result for Cc1ccc(-c2nc(CS(=O)CC(=O)NC3CCC(C)CC3)c(C)o2)cc1 (configuration not stated) in Anthrax LT inh: -20%
Result for CCc1ccc(NC(=O)CSc2nnc(CNC(=O)c3c(F)cccc3Cl)o2)cc1 in Prx2 Sm inh: >57
Result for Cc1cc(NC(=O)CSc2nc3ccccc3n2CC(=O)N2CC(C)CC(C)C2)no1 (configuration not stated) in Prx2 Sm inh: >57

Going on with the list:
SMILES	Anthrax LT inh	Prx2 Sm inh
CCCC(=O)N1CC2(CCC)CN(C(=O)CCC)CC(CCC)(C1)C2=O	-6%	>57
CC(=O)N1CCCc2cc(S(=O)(=O)NCCC3=CCCCC3)ccc21	6%	>57
CC1C(C#N)=C(N)OC2=C1C(=O)CCC2 (configuration not stated)	.	>57
CCC/C=C(\CCC)C(NC(=O)c1ccccc1)c1ccccc1 (configuration not stated)	-26%	>57
CCCCNC(=O)CC(=O)Nc1ccccc1C(=O)O	10%	>57
CCCCC(=O)Nc1ccc(C(=O)N2CCN(c3ccccc3OC)CC2)cc1	13%	>57
CCn1c(=O)[nH]c2cc(Cl)c(Cl)cc21	-4%&-5%	>57&>57
Cn1c(O)c(C=NC2CC3CCC2(C)C3(C)C)c(=O)[nH]c1=O (configuration not stated)	-5%	>57
CCOC(=O)C1CCN(C(c2ccc(OC)c(OC)c2)c2sc3nc(C)nn3c2O)CC1 (configuration not stated)	2%	>57
CCOC(=O)c1ccc(NC(=O)C2=C(C)Nc3nc(CCCO)nn3C2c2cccc(C)c2)cc1 (configuration not stated)	-1%	>57
COc1ccccc1CNc1ccnc(-c2cccc(NS(C)(=O)=O)c2)n1	?	>57
CCCC[C@@H]1C[C@H]1C(NC(=O)c1ccco1)c1ccccc1 (some centres not stated)	-7%	>57
O=C(C1CCN(S(=O)(=O)N2CCC3(CC2)OCCO3)CC1)N1CCN(Cc2ccccc2)CC1	1%	>57
CC1=C(C(=O)N2CCCCC2)C(c2cccs2)C2=C(CCCC2=O)N1 (configuration not stated)	-1%	.
O=C(c1ccc2c(c1)ncn2C1CCCCCC1)N1CCC2(CC1)OCCO2	-11%	>57
CC12CCC(C(=O)NCc3ccccc3)(OC1=O)C2(C)C (configuration not stated)	9%	>57
CCc1nc(SCC(=O)N2CCc3ccccc32)c2oc3ccccc3c2n1	-12%	>57
O=C(O)CCN=C1CCCc2ccccc2N1	-5%	>57
COc1ccc(C(=O)COC(=O)c2ccc(OC)c(OC)c2)cc1OC	4%	>57
Cc1ccc2c(c1C)NC(=O)C2(O)CC(=O)c1ccc2c(c1)OCO2 (configuration not stated)	-6%	>57
Cc1nnc(SCc2ccccc2Cl)n1CC1CCCO1 (configuration not stated)	7%	>57
COC(=O)CSc1nnc(CNC(=O)c2cccs2)n1-c1cc(OC)ccc1OC	-5%	>57
COc1ccc(CCNC(=O)C2CCCN2C(=O)NC2CCCCC2)cc1OC (configuration not stated)	-4%	>57
O=C(CSc1nc2c(c(=O)[nH]1)CCCC2)Nc1ccc(Cl)cc1F	?	>57
COCCCNS(=O)(=O)c1ccc2c(c1)CCN2C(C)=O	13%	>57
CCCC(C)C1C(C#N)=C(N)Oc2cc(C)oc(=O)c21 (configuration not stated)	-1%	>57
C=CCNC(=O)C1CCN(S(=O)(=O)c2ccccc2)CC1	-20%	>57
CCOC(=O)N1CCN(Cc2nc3c(c(=O)n(C)c(=O)n3C)n2Cc2cc(C)ccc2C)CC1	-9%	>57
CC1CCCCC1NC(=O)C1CCN(S(=O)(=O)N2CCOCC2)CC1 (configuration not stated)	5%	>57
Nc1ccc2c(C(F)(F)F)cc(=O)oc2c1	?	>57
Cc1cc(NC(=O)COC(=O)C2CCN(S(=O)(=O)c3ccc(Cl)cc3)CC2)no1	-11%	>57
C=CCN(CC=C)S(=O)(=O)c1ncn[nH]1	3%	>57
Cc1noc(C)c1-c1cc(NC2CC2)ncn1	?	>57
NC(=O)c1ccc(-c2ccc(Br)cc2)o1	2%	>57
CCOC(=O)N1CCN(C(=O)c2ccc(C)c(S(=O)(=O)Nc3cccc(C)c3C)c2)CC1	.	>57
O=S(=O)(c1cccc2nsnc12)N1CCCC1	7%	>57
CC(=O)Nc1nc(-c2ccc(Cl)cc2)nc(C)c1C(C)=O	-11%	>57
O=C(COC(=O)COc1ccc(Nc2ccccc2)cc1)NCc1ccco1	4%	>57
CCOc1ccc(C2Oc3nc(SC)nnc3-c3ccccc3N2C(C)=O)cc1OC (configuration not stated)	-8%	>57
CSc1nnc(-c2ccccc2)n1C	-9%	>57
CCCCCCCCCCCCCCCC(=O)NC(C)C	-4%	>57
CCn1nc(C(=O)OCC(=O)c2cc(C)n(Cc3cccs3)c2C)c2ccccc2c1=O	-6%	>57
COc1ccc2nc(C)cc(N3CC(C)OC(C)C3)c2c1 (configuration not stated)	-13%	>57
Cc1nc(CC(=O)N2CCN(c3cccc(C)c3C)CC2)cs1	6%	>57
COc1cc2c(cc1OC)C(c1cccc(OC)c1OC)CC(=O)N2 (configuration not stated)	9%	>57
C=CCOC(=O)C1=C(C)NC(=O)NC1c1ccc(OC(=O)c2ccco2)c(OC)c1 (configuration not stated)	-13%	.
O=C(CSc1nnc(Cc2cccs2)n1C1CCCCC1)N1CCN(C(=O)c2ccco2)CC1	-2%	>57
CCOc1ccc(NC(=O)N(CCC(C)C)C(C)c2ccco2)cc1 (configuration not stated)	-3%	>57
COc1ccc(CNc2nc3nc(C)cc(C)n3n2)cc1OC	?	.
CCN(Cc1ccccc1)Cc1cc(OC)cc(OC)c1	-6%	.
CCOC(=O)c1c(N)sc2c1CCS(=O)(=O)C2	-22%	>57
CCN(CC)CC(=O)N(CC(=O)Nc1c(C)cc(C)cc1C)C1CCCCC1	-18%	>57
CC(=O)OC1=CC2=CC[C@H]3[C@H]4CCC(=O)[C@@]4(C)CC(=O)[C@]3(S)[C@]2(C)CC1	-2%[8 µM]	>57
Cc1nc(-c2ccc(C(=O)N3CCOCC3)cc2)cs1	?	>57
Fc1ccc2nc(-c3ccccc3)nc(SCc3nnc(-c4ccccc4)o3)c2c1	-7%	>57
CCn1cc(C(=O)N2CCCc3ccccc32)c2cc(OC)c(OC)cc2c1=O	2%	>57
CC(=O)N1[C@H](C)C=C[C@]1(Cc1ccccc1)C(=O)NCCN1CCOCC1	-8%	.
CCOC(=O)c1ccc2nc(NC(=O)c3ccco3)sc2c1	2%	>57
Cc1ccc2nc(SCC(=O)NC(=O)NCc3ccco3)[nH]c2c1	?	>57
COc1cc(NC(=O)c2ccc(COc3ccccc3Br)o2)cc(OC)c1OC	?	>57
The listing continues:
SMILES	Anthrax LT inh	Prx2 Sm inh
COC(=O)c1cc(Br)c(=O)n(CCN2CCOCC2)c1	0%	>57
O=C(CCS(=O)(=O)c1ccc(Br)s1)NCc1ccc2c(c1)OCO2	-8%	>57
O=C1CC(N2CCOCC2)C(=O)N1Cc1ccc(N2CCCC2=O)cc1 (configuration not stated)	11%	>57
CCOC(=O)N1CCN(C(=O)c2cc(C)c3c(C)nn(-c4ccccc4)c3n2)CC1	-8%	>57
COc1ccc(Br)cc1CNC(=O)C1CCCN(S(C)(=O)=O)C1 (configuration not stated)	10µM*	>57
CCOC(=O)CCN1C(=O)[C@@H]2[C@H]3C(=CC[C@H]2C1=O)C(=O)[C@H]1O[C@H]1[C@H]3O	?	.
Cc1c(C(=O)N2CC(C)OC(C)C2)sc2nc(-c3ccc(F)cc3)cn12 (configuration not stated)	6%	>57
COc1ccc(COC(=O)N/N=C2/C[C@@H](O)[C@@H](O)[C@@H]3[C@@H]4C(=O)N(Cc5ccccc5)C(=O)[C@H]4CC[C@@H]23)cc1	1%[8 µM]	.
Cc1cc(N2CCN(C(=O)c3ccco3)CC2)n2nc(-c3cccc(Cl)c3)cc2n1	18%	>57
CCOC(=O)c1cnn(CCOC(=O)C(C)(C)C)c1NC(=O)C(C)(C)C	-10%	>57
Brc1c(NC2=NCCN2)ccc2nccnc12	-14%&-15%	>57&>57
CCOC(=O)CCCn1c(C)nc(=O)c(-c2ccccc2)c1C	-11%	>57
CCCCSc1nsc(NC(C)=O)n1	?	>57
CSCC[C@H](NC(=O)C1CCN(S(=O)(=O)c2ccc(C)cc2)CC1)C(=O)NCc1ccco1	-11%	>57
CCCS(=O)(=O)NCCc1cc2ccc(C)cc2[nH]c1=O	?	>57
